# TRPV1 potentiator: human TRPV1 potentiation; Q8NER1; TRPV1-expressing cells, Fluo-8 calcium influx, capsaicin EC20 potentiation; host cell line not named in the record; control for the full effect not named in the record; potentiation, % at 8.33 µM; 320,000 compounds, 0.02% hits; AID 540277; active means potentiation above 80%; inconclusive means 30% to 80%; inactive means below 30%; note: 0% is about no effect
# Target sequence (Q8NER1 whole entry, looked up): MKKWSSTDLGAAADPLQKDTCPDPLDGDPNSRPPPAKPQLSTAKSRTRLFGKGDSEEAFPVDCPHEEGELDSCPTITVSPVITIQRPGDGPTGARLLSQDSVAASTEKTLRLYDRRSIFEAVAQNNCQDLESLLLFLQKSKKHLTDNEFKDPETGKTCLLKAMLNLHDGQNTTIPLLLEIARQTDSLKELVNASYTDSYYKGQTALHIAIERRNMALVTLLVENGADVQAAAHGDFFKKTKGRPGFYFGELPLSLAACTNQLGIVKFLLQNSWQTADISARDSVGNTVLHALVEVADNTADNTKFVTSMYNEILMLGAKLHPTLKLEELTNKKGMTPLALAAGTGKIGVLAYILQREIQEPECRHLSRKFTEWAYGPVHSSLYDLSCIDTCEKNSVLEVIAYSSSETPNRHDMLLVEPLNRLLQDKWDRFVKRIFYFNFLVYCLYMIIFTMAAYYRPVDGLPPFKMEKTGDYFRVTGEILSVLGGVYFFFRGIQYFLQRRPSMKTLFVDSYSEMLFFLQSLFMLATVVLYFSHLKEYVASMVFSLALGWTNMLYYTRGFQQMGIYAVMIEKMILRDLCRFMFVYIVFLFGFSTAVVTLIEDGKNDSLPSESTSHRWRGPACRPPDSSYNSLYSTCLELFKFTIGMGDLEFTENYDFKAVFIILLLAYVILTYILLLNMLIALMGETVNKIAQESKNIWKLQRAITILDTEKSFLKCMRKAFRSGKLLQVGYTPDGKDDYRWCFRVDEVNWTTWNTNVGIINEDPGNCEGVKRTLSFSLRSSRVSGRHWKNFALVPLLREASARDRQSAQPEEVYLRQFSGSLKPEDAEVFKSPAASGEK
#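 TRPV1-expressing cells were cultured overnight at 35.5C and loaded with Fluo-8 calcium dye for 40 to 90 min at room temperature. After a 10 s baseline, compound was added and calcium influx was read kinetically for 3 min (ex 480/em 520 nm).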
# gsp agonist: activates gsp, the McCune-Albright syndrome mutation; gsp mutant cells, cAMP HTRF, 30 min; control for the full effect not named in the record; Potency, µM (doses to about 76.9 µM), inactives show at the highest dose activation (cAMP increase), most hits filed as activators; 340,000 compounds, 0.13% hits; active = well fitted activation curve with a large enough effect; inconclusive = small, poorly fitted or top-dose-only effect, or another doubt; inactive = no such curve, though single readings can be large or run the other way; cell line not stated here;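 note: phosphodiesterase inhibitor Ro 20-1724 added with compounds to block cAMP breakdown; potency is the fitted concentration of half-maximal effect; nearly all actives have a fitted effect of over 60% in size; about a fifth of the inactives were tested at one dose only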
#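 Cells stably selected in G418 were plated at 2000/well, grown 16-24 hr, then given compounds in DMSO with the PDE inhibitor […] (300 uM solution added) for 30 min at 37C; cAMP was read by HTRF.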
# D2 PAM: potentiates the human D2 dopamine receptor allosterically. DiscoveRx D2 beta-arrestin cells, luminescence, 90 min; 100% = 57 uM dopamine signal. potentiation, % (test concentration not listed). 360,000 compounds, 0.23% hits. AID 624464; active = potentiation of 50% or more; inconclusive = 30% to 50%; inactive = 30% or less;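 note: compound concentration not given in the record; tested on top of an EC20 dose of dopamine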
#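 D2 cells co-treated with compound plus 50 nM dopamine (EC20) for 90 min at 37 deg C to detect potentiation. Beta-arrestin recruitment was read as enzyme-fragment luminescence after 1 h at ambient temperature. Full response was set by 57 uM dopamine.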
# gsp antagonist: gsp mutant antagonism; gsp-mutant cells, cAMP HTRF, 30 min; control for the full effect not named in the record; Potency, µM (series often up to 76.9 µM), without a hit: at the highest dose activity change, negative = inhibition, hits mostly inhibitors; 340,000 compounds, 0.4% hits; AID 624288; active = falling curve of any shape with a large fitted effect; inconclusive = falling curve, mostly with a smaller effect; inactive = flat or rising curve; cell line not stated here;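 note: intracellular cAMP measured with PDE inhibitor Ro 20-1724 present during compound exposure; potency is the fitted concentration of half-maximal effect; % is set by controls: 0 for no effect and ±100 for the full control effect; nearly all actives have a fitted effect of over 65% in size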
#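 HTRF cAMP read-out (cAMP-d2 plus anti-cAMP antibody-K in lysis buffer, 30 min RT). Before lysis, cells are exposed to compounds with […] for 30 min at 37C in DPBS containing Ca/Mg, BSA and Tween 20.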
# Sfp inh: inhibitors of Bacillus subtilis Sfp phosphopantetheinyl transferase; Q9F4F7; Biochemical Sfp PPTase activity, qHTS; Potency, µM, for inactives: max response, negative = inhibition, most hits filed as inhibitors; 310,000 compounds, 3.5% hits; active = well fitted inhibition curve with a large enough effect; inconclusive = small, poorly fitted or top-dose-only effect, or another doubt; inactive = no such curve, though single readings can be large or run the other way;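 note: the enzyme is Sfp with the accession as filed and its product quenches rhodamine fluorescence; potency is the fitted concentration of half-maximal effect; 0% = enzyme reaction without inhibitor and -100% = no enzyme wells; top concentration of the series not given in the record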
#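 Fluorescence-quenching assay: 15 nM Sfp-PPTase preincubated 15 min at room temperature with compound, then 5 uM rhodamine-CoA and 12.5 uM BHQ-2-labelled YbbR peptide added. Fluorescence (ex 525/em 598 nm) read at start and after 30 min; difference gives rate.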
# ClpP mod: qHTS Assay for Activators of ClpP; AID 651965, 2013; ATP-dependent Clp protease proteolytic subunit (Bacillus subtilis (strain 168)), P80244; purified B. subtilis ClpP, FRET peptide cleavage, 20 min; Potency, µM (top dose mostly 57.5 µM), for the others: at the highest dose activity change, negative = active; 340,000 compounds, 1.9% hits; active = well fitted falling curve with a large enough effect; inconclusive = small, poorly fitted or top-dose-only effect; inactive = no such curve, though single readings can be large or run the other way; note: potency is the fitted concentration of half-maximal effect; the source files actives as falling curves though it sought activators and does not explain the sign; nearly all actives have a fitted effect of over 65% in size; many hits overshoot -100%
# Target sequence (P80244 whole entry, looked up): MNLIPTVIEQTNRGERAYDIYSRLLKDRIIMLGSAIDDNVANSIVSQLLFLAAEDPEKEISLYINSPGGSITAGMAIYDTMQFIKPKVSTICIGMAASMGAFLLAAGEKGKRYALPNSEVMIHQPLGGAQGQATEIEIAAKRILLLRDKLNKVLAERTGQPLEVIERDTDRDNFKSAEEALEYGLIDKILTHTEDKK
#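 Purified B. subtilis ClpP, 10 microg/mL final in Tris/HCl pH8 with KCl, BSA, glycerol and Tween-20, cleaved an Abz/nitrotyrosine-quenched decapeptide. Fluorescence (ex 320, em 430) was read at 0 and 20 min at room temperature. Delta was normalized to 5.8 microM ADEP and DMSO/no-enzyme controls.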
# Menin MLL FP FL: inhibitors of human menin-MLL interaction, wild-type MLL peptide. AID 1766. FP activity change, % at 61.4 µM. Fluorescence polarization, fluorescein-MLL peptide displacement from menin. 290,000 tested, under 10 active; inconclusive = falling polarisation curve, or a change in total fluorescence; inactive = total fluorescence flat and polarisation flat or rising; no compound was filed as active; the % refers to the polarisation; negative = inhibition;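 note: % of control where 0% means no effect; inhibitors lower the polarisation; unlabelled MLL peptide was the positive control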
# * = called active by the depositor; ? = inconclusive; nt = not tested or not shown; & = joins results of further samples; [ ] = remark or other dose.
SMILES,TRPV1 potentiator,gsp agonist,D2 PAM,gsp antagonist,Sfp inh,ClpP mod,Menin MLL FP FL
CS(=O)(=O)N(Cc1cc2ccccc2[nH]c1=O)C1CCCCC1,17,-46%[inhibitor],-11,-15%,7%,?,1.8
O=C(CN1C(=O)CC(c2ccccc2)=Nc2ccccc21)NCc1ccco1,-18,10%,16,8%,-25%,1.5%,3.3
CCC(=O)NCCn1c(C)cc2ccccc21,-4,?,-3,10%,4%,-9.2%,-28
CN1CCC(=NNC(=O)CN(c2cccc(Br)c2)S(C)(=O)=O)CC1,?,-13%,-27,12%,10%,0.5%,-5.4
N#CCc1nn(-c2ccccc2)c2ncnc(N)c12,5,?,-3,10%,2%,3.9%,-1.0
CCOCCCNc1ccc(N2C(=O)C3CCCCC3C2=O)cc1[N+](=O)[O-] (stereo not given),3,-3%[15.4 µM],-1,-1%,-1%,nt,-2.5
CCCCCC(=O)NC(=S)Nc1ccc(NC(=O)c2ccco2)cc1,-8,2%,-7,3%,4%,nt,-1.2
CCOC(=O)Cc1csc(SCC(=O)Nc2ccc3[nH]c(=O)[nH]c3c2)n1,0,2%,2,6%,nt,1.5%,nt
CCCCn1c(N)c(N(CCOC)C(=O)CSCc2ccc(C)cc2)c(=O)[nH]c1=O,16,-1%,-19,4%,nt,?,nt
Cc1nc(NC(=O)/C=C/c2ccc(C(C)(C)C)cc2)sc1C(=O)N(C)C,9,4%,-12,8%,-10%,-2.6%,2.7
N#Cc1nc(COc2ccccc2)oc1N1CCOCC1,-25,-33%[inhibitor],-14,6%,-1%,2.3%,4.1
Cc1cccc(OCC(=O)Nc2c3c(nn2C(C)(C)C)CS(=O)(=O)C3)c1,-2,-13%,-16,5%,10%,-0.2%,nt
CCC(=O)N1CCc2cc(S(=O)(=O)NC(C(=O)NCc3ccc(F)cc3)C(C)C)ccc21 (stereo not given),-7,3%,-10,2%,4%,5.4%,1.0
O=C(C[n+]1ccc(Cc2ccccc2)cc1)Nc1ccc([N+](=O)[O-])cc1Cl,-3,2%,-14,7%,11%,2.0%,-7.3
Nc1ccc(NC(=O)NC2CCCCC2)cc1,-12,-8%[15.4 µM],-5,3%,0%,nt,-3.1
COc1ccc(S(=O)(=O)NNC(=O)c2cc3cc4ccccc4nc3s2)cc1,23,?,-2,?,7%,-10.0%,-0.8
Cc1cc(=O)[nH]c(SCc2nc3ccccc3s2)n1,?,-1%,-9,-4%,-8%,0.9%,0.7
COCCCn1c(=O)c2sccc2n2c(CCCC(=O)NCc3cccc(OC)c3)nnc12,24,?,-4,-3%,18%,-4.3%&-13%,nt
O=C(Nc1cccc(Cl)c1)C1=Cc2cc(Cl)ccc2OC1,0,-22%,-7,-14%,?,-6.0%,-0.8
COc1ccc(/C=C/C(=O)NCCNC(=O)c2ccccc2)cc1OC,?,24%[15.4 µM],-5,-41%,11%,nt,-0.1
CCOc1cc(C2C3=C(CCCC3=O)NC3=C2C(=O)CCC3)ccc1OCCO,-2,24%,-1,5%,-5%,-6.5%,7.9
CC(C)C[C@@H](CO)NS(=O)(=O)c1c(F)cccc1F,nt,nt,-2,9%,nt,-3.4%,nt
CSc1ccc(CN(C)C(=O)C2CCN(C(=O)Nc3ccccc3)CC2)cc1,-2,-5%,-2,-13%,nt,-2.8%,nt
CC1(C)CCC[C@]2(C)[C@H]3CC(=O)O[C@]3(C)CC[C@@H]12,-7,1%[15.4 µM],-5,11%,11%&4%,-5.9%,1.3&0.9
O=c1ccc2[n+]([O-])c3ccc(O)cc3oc-2c1,-5,-37%[inhibitor],1,9%,?,-3.1%,?
O=C(c1ccncc1)c1ccc(NS(=O)(=O)c2ccc(Br)s2)cc1,20,-29%,?,-22%,6%,1.1%,-0.3
O=C(NCCc1ccccc1)C1CCN(C2CCN(Cc3ccc(CO)o3)CC2)CC1,-6,-9%[15.4 µM],-4,9%,7%,nt,-5.7
CC(OC(=O)c1ccc(Cl)c(S(N)(=O)=O)c1)C(=O)NCC1CCCCC1 (stereo not given),12,-6%,5,2%,nt,-0.5%,nt
COc1ccccc1-c1nn2c(C(F)(F)F)nnc2s1,-17,-39%,0,10%,16%,13µM*,-0.7
CCc1ccc(S(=O)(=O)Nc2cc3c(cc2C)n(C)c(=O)n3C)cc1,6,4%,-12,0%,-8%,1.2%,-3.8
COc1cccc(NC(=O)N2CCN(C(=O)C(Cc3ccc(OC)c(OC)c3)NC(C)=O)CC2)c1 (stereo not given),-3,-18%,-9,13%,16%,-0.4%,0.7
CCOC(=O)c1c(C)[nH]c(C)c1C(=O)CSc1nc2ccccc2n1CC,6,0%,-16,-6%,11%,1.1%,2.6
COc1ccc(CCNC(=O)CSc2nc(C)nc3c2c(=O)n(C)c(=O)n3C)cc1OC,0,?,-1,4%,5%,0.6%,1.0
CN(CC(=O)Nc1ccc(Cl)c(C(F)(F)F)c1)C(=O)/C=C/c1cccs1,-2,24%,-12,-22%,nt,60%,nt
CCC(Sc1nc2ccccc2[nH]1)C(=O)Nc1cc(C)on1 (stereo not given),5,-50%,-19,-8%,0%,?,3.8
O=C(O)c1ccc2cc[nH]c2c1,13,-25%,14,7%,16%,16µM*,1.5
C[C@H](CO)N1C[C@H](C)[C@H](CN(C)S(=O)(=O)c2cccs2)Oc2ncc(-c3cc4ccccc4o3)cc2C1=O,nt,-35%,-10,nt,nt,3.8%,nt
O=C(NC(=O)C(F)(F)F)Nc1ccc(S(=O)(=O)Nc2nccs2)cc1,-8,4%,-21,-3%,9%,-2.9%,1.0
COc1ccc(-n2nc3c(N4CCC(C(=O)NCc5ccccc5C)CC4)nnc(C)c3c2C)cc1,-14&-15,-6%,-18,-16%,6%,?,nt
Cc1cc(C)nc(NC(=O)CSc2nc3cc(Cl)ccc3s2)n1,16,-6%,-2,-5%,?,-3.0%,0.9
CCOc1ccc(-c2[nH]nc3c2C(c2ccc4c(c2)OCO4)C(C#N)=C(N)O3)cc1OC (stereo not given),-1,-1%[15.4 µM],-8,17%,1%,-22%,3.6
O=C(CSc1nnc(-c2c[nH]c3ccccc23)o1)N1c2ccccc2CCc2ccccc21,11,8%,7,-7%,17%,-7.3%,nt
CCS(=O)(=O)C1=NSC2=NC(=O)/C(=C\c3ccc(OC(=O)c4ccco4)cc3)C(=N)N21,-10,?,-3,-2%,-7%,1.5%,?
COc1cc(C(=O)Nc2ccc(S(=O)(=O)Nc3onc(C)c3C)cc2)cc(OC)c1OC,6,14%,-9,5%,-11%,0.5%,4.0
Nc1nc(SCc2ccccc2[N+](=O)[O-])c2ncn(Cc3ccccc3)c2n1,nt,2%,1,-31%,nt,nt,nt
C/C(=N\Nc1ccccn1)c1ccc(S(=O)(=O)NCc2ccco2)cc1,3,0%,1,12%,-3%,-8.8%,2.4
CCCSc1nc(N2CCCC2)c2c(c1C#N)CC(C)(C)OC2,-15,-5%,-8,?,-12%,-24%,1.5
CCN(CC)C(=O)N1CCN(S(=O)(=O)c2ccccc2)CC1,0,-35%,-7,0%,21%,-1.8%,-3.9
O=c1ccn([C@@H]2O[C@H](COS(=O)(=O)O)[C@@H](O)[C@H]2O)c(=O)[nH]1,nt,?,-28,9%,nt,-2.6%,nt
Cc1cc(NC(=O)CSc2nnnn2Cc2ccccc2)no1,4,-32%[inhibitor],2,9%,24%,-1.1%,0.3
COc1ccc(NS(=O)(=O)c2cccc(C(=O)NCc3ccccc3CN3CCCC3)c2)cc1,-5,-5%,-36,-1%,nt,-3.2%,nt
CC(OC(=O)c1ccc2c(c1)OCO2)C(=O)NC1CCCCC1 (stereo not given),nt,0%,-13,nt,nt,-21%,nt
NC(CSC1(c2cccc3ccccc23)c2ccccc2-c2ccccc21)C(=O)O (stereo not given),nt,-45%[inhibitor],9,-9%,nt,-2.5%,nt
S=C(Cc1ccc(-c2ccccc2)cc1)N1CCOCC1,nt,28%,-20,-1%,nt,-0.6%,nt
Cc1ccccc1CNC(=O)Cn1ccc2cc(S(=O)(=O)N3CCCCCC3)ccc21,11,27%,1,-19%,17%,-6.0%,-6.3
Cc1cccc(NC(=O)c2snc3c(=O)[nH]cnc23)c1,10,nt,nt,nt,11%,nt,0.6
Cc1ccccc1N(C(=O)Cc1ccsc1)C(C(=O)NC1CCCCC1)c1ccc(F)cc1 (stereo not given),0,-18%,-17,11%,11%,-0.6%,-3.4
O=C(CCCN1C(=O)S/C(=C/C=C/c2ccccc2)C1=O)Nc1ccc(C(=O)O)cc1,15,?,-30,-7%,14%,-0.6%,nt
COC(=O)CC1(C(=O)OC)Nc2cc(Cl)c(Cl)cc2S(=O)(=O)N1O (stereo not given),nt,1%,-12,nt,nt,-2.9%,nt
Fc1ccc(OCc2nc(-c3ccc(Br)o3)no2)c(F)c1,nt,-61%[inhibitor],-3,-2%,-4%,-3.2%,3.3

# Assay outcomes from PubChem BioAssay.
